Mtb growth = Mycobacterium tuberculosis H37Rv growth inhibition, putative kinase inhibitor library, confirmatory dose response (AID 2842). one-dose inhibition, % at 10 µg/mL; IC90 in µg/mL for titrated hits. actives 5.2% (n = 24,000). M. tuberculosis H37Rv growth inhibition; higher % means a stronger effect; some inactives read as strong as hits;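 active means confirmed in a dose series; inconclusive means mostly over 85% at the one dose but not retested; inactive means below 85% or not confirmed; about a fifth of its hits are not listed in these tables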;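 further: bacteria incubated one week before Alamar blue readout; 0% = bacteria only wells and 100% = bacteria with high antibiotic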
Starred values were filed as active, the others as inactive; u = inconclusive.

SMILES	Mtb growth
CCOC(=O)C(C)Sc1nc2c(c(=O)[nH]c(=O)n2C)n1C (stereo not drawn)	11%
CCn1c(SCC(=O)Nc2ccccc2F)nc2c(c1=O)SC(C)C2 (stereo not drawn)	0%
O=C(Nc1cc(Cl)ccn1)C1CCN(S(=O)(=O)c2cccs2)CC1	2%
COc1ccc2nc(-c3ccc(NC(=O)c4ccc(OC)c(OC)c4)cc3)cn2n1	0%
Cc1ccccc1CSc1nnc(Cn2c(=O)sc3ccccc32)n1C	6%
CC(=O)Nc1c(C(=O)Nc2ccc(F)c(F)c2)oc2ccccc12	1%
CCCNC(=O)C(=O)Nc1cc2c3c(c1)CC(=O)N3CCC2	-4%
Cc1ccc(-n2ncc3c(=O)[nH]c(SC/C=C/c4ccccc4)nc32)cc1	12%
Cc1ccccc1NC(=O)CSc1ccc2nnc(-c3cccnc3)n2n1	-9%
CCc1cnc2c(c1OC)c(=O)n(CC(=O)NCc1ccccc1)c(=O)n2C	6%
CC1=C(C(=O)Nc2ccc(Cl)cc2)C(c2ccc(C(C)C)cc2)NC(=O)N1 (stereo not drawn)	0%
COC(=O)N1CCc2c(sc(NC(=O)c3cccc(N4C(=O)CCC4=O)c3)c2C#N)C1	-19%
CCOc1ccc(/C=C2\SC(=S)N(CC(=O)Nc3cccc(C(=O)O)c3)C2=O)cc1	-9%
COc1ccc(-c2nnc3ccc(SCc4cccc(F)c4)nn23)cc1	2%
Cc1ccc([N+](=O)[O-])cc1NC(=O)CC1Nc2ccccc2NC1=O (stereo not drawn)	3%
CCOC(=O)c1nn(-c2ccc(F)cc2)c(=O)c2c(NC(=O)CCCc3ccccc3)scc12	-5%
COC(=O)c1c(NC(=O)c2ccco2)sc2c1CC(C)(C)NC2(C)C	2%
Cn1c(=O)c2c(SCC(=O)N3CCOCC3)nc(-c3ccco3)nc2n(C)c1=O	-5%
COc1cccc(-c2ccc3nnc(SCc4cccnc4)n3n2)c1	-5%
O=C(CSc1nnc2ccc(-c3ccccc3)nn12)NCC1CCCO1 (stereo not drawn)	-10%
O=C(Nc1nccs1)c1ccc(S(=O)(=O)N2CCCCC2)cc1	-8%
COc1cccc(-n2c(SCC(=O)Nc3nccs3)nc3c([nH]c4ccccc43)c2=O)c1	-7%
NC(=O)c1nc(-c2ccccc2O)nc2c1[nH]c(=O)n2-c1ccc(Cl)c(Cl)c1	10%
CCCc1cc(=O)[nH]c2nnc(SCc3ccc(Cl)cc3)n12	-8%
CCc1ccccc1N1C(=O)CC(Sc2ccccc2C(=O)O)C1=O (stereo not drawn)	4%
CCS(=O)(=O)c1ccc(C(=O)Nc2nc3c(Cl)ccc(Cl)c3s2)cc1	-10%
O=c1[nH]cc(S(=O)(=O)N2CCN(c3ccccc3F)CC2)c(=O)[nH]1	-3%
CC(=O)Nc1nc(-c2ccccc2)c(C(C)=O)s1	18%
CCc1ccccc1NC(=O)Cn1cnc2sc(C(N)=O)c(C)c2c1=O	-13%
Cc1ccc2nc(NCc3ccccc3)c(C=NCc3ccccc3)c(=O)n2c1	6%
COc1ccc(-n2nnc3c(SCC(=O)Nc4ccc(OC)c(OC)c4)ncnc32)cc1	-3%
Cc1cc(NS(=O)(=O)c2ccc(NC(=O)C(F)(F)F)cc2)nc(C)n1	4%
COc1ccc(C(=O)NCc2nnc(SCC(=O)Nc3nnc(C)s3)n2Cc2ccccc2)cc1	3%
CCn1c2c(c(=O)[nH]c1=O)C(c1ccccc1)C1=C(CC(C)(C)CC1=O)N2 (stereo not drawn)	-9%
Oc1ccc(Br)cc1C1CC(c2ccoc2)=NN1 (stereo not drawn)	25µg/mL*
Cc1cc(C)cc(NC(=O)CSc2ncc(S(=O)(=O)c3ccc(C)c(C)c3)c(=O)[nH]2)c1	5%
O=C(CSc1ncnc2c1nnn2-c1ccc(F)cc1)Nc1ccc2c(c1)OCO2	-10%
Cc1ccc(NC(=O)CSC2=C(C#N)C(c3ccccc3C)C3=C(CCCC3=O)N2)cc1C (stereo not drawn)	64%
COc1ccc(NC(=O)CSc2nnc(-c3c[nH]c4ccccc34)n2C)c(OC)c1	-6%
Cc1cc2cc(CCNC(=O)COc3ccc(Cl)cc3Cl)c(=O)[nH]c2cc1C	2%

In a second layout: 15 of the compounds above
structure | Mtb growth
CC1=C(C(=O)Nc2ccc(Cl)cc2)C(c2ccc(C(C)C)cc2)NC(=O)N1 (stereo not drawn) | 0%
COC(=O)N1CCc2c(sc(NC(=O)c3cccc(N4C(=O)CCC4=O)c3)c2C#N)C1 | -19%
CCOc1ccc(/C=C2\SC(=S)N(CC(=O)Nc3cccc(C(=O)O)c3)C2=O)cc1 | -9%
COc1ccc(-c2nnc3ccc(SCc4cccc(F)c4)nn23)cc1 | 2%
Cc1ccc([N+](=O)[O-])cc1NC(=O)CC1Nc2ccccc2NC1=O (stereo not drawn) | 3%
CCOC(=O)c1nn(-c2ccc(F)cc2)c(=O)c2c(NC(=O)CCCc3ccccc3)scc12 | -5%
COC(=O)c1c(NC(=O)c2ccco2)sc2c1CC(C)(C)NC2(C)C | 2%
Cn1c(=O)c2c(SCC(=O)N3CCOCC3)nc(-c3ccco3)nc2n(C)c1=O | -5%
COc1cccc(-c2ccc3nnc(SCc4cccnc4)n3n2)c1 | -5%
O=C(CSc1nnc2ccc(-c3ccccc3)nn12)NCC1CCCO1 (stereo not drawn) | -10%
O=C(Nc1nccs1)c1ccc(S(=O)(=O)N2CCCCC2)cc1 | -8%
COc1cccc(-n2c(SCC(=O)Nc3nccs3)nc3c([nH]c4ccccc43)c2=O)c1 | -7%
NC(=O)c1nc(-c2ccccc2O)nc2c1[nH]c(=O)n2-c1ccc(Cl)c(Cl)c1 | 10%
CCCc1cc(=O)[nH]c2nnc(SCc3ccc(Cl)cc3)n12 | -8%
CCc1ccccc1N1C(=O)CC(Sc2ccccc2C(=O)O)C1=O (stereo not drawn) | 4%

Additional results follow:
SMILES	Mtb growth
CCCc1cc(=O)[nH]c2nnc(SCC(=O)Nc3ccc(Cl)c(Cl)c3)n12	-10%
CCCCn1c(SCC(=O)c2ccc(Cl)cc2)nc2c1c(=O)[nH]c(=O)n2C	14%
O=C(CN1N=NC2C(=O)N(c3ccc(F)c(F)c3)C(=O)C21)Nc1ccc(Cl)cc1 (stereo not drawn)	-3%
COc1ccc(CCNC(=O)CSc2ccc(-c3ccc4c(c3)OCO4)nn2)cc1OC	-6%
Clc1ccc(Cl)c2sc(N3CCCC3)nc12	73%
CC(=O)c1ccc(Nc2nc(-c3ccccc3)c3cc(Cl)ccc3n2)cc1	41%
O=C(Nc1nnc(-c2ccccc2)o1)c1ccccc1	u
O=C(Nc1c(C(=O)Nc2ccc(Cl)cc2)oc2ccccc12)c1ccc(Br)o1	3%
CNc1nc(Nc2ccc(C)c(C)c2)c2nccnc2n1	0%
O=C(O)c1ccc2nc(-c3cc4ccc(OCc5ccccc5)cc4oc3=O)[nH]c2c1	1%
O=C(CS(=O)(=O)c1ccccc1)Nc1ncc(S(=O)(=O)c2ccc([N+](=O)[O-])cc2)s1	58%
CC(=O)NCCNC(=O)CCCCn1c(=O)[nH]c2ccsc2c1=O	-10%
CCCC(=O)Nc1nc(-c2ccc3c(c2)OCCO3)cs1	7%
Cn1c(=O)[nH]c(=O)c2c1nc(N1CCNCC1)n2Cc1ccc(Br)cc1	10%
O=C1OCCC1Sc1nc2sc3c(c2c(=O)[nH]1)CCCC3 (stereo not drawn)	-18%
CCOC(=O)c1nn(-c2ccccc2)c(=O)c2c(NC(=O)c3cccc([N+](=O)[O-])c3C)scc12	-1%
CC1CCN(C(=O)CSc2nc(N)c(NC(=O)c3ccccc3)c(=O)[nH]2)CC1	-3%
COc1cc2c(=O)c(C(=O)c3ccc(C)c(C)c3)cn(Cc3ccc(F)cc3)c2cc1OC	-4%
COc1cccc2c(=O)n(CC(=O)Nc3cc(C)ccc3C)ccc12	11%
Cc1ccc(C(=O)Nc2c(N)nc(SCC(=O)Nc3nc4ccc(C)cc4s3)[nH]c2=O)cc1	-1%
CCOC(=O)c1nn(-c2ccc(OC)cc2)c(=O)c2c(NC(C)=O)scc12	3%
NC1=NC(=O)C(CC(=O)NCC(=O)O)S1 (stereo not drawn)	-1%
CCCOC(=O)c1cccc(N/C=C(\C#N)c2nc3ccccc3[nH]2)c1	-5%
O=C(CSc1nnc2ccc(-c3cccc([N+](=O)[O-])c3)nn12)NC1CCCCC1	-13%
O=C(Nc1c(C(=O)Nc2ccc(Cl)cc2)oc2ccccc12)c1cc2ccccc2o1	16%
CC(C)CN(CC(C)C)S(=O)(=O)c1ccc(C(=O)Nc2sc3c(c2C(N)=O)CCN(C(C)C)C3)cc1	-6%
Cc1ccc(CNc2ncnc(N)c2[N+](=O)[O-])cc1	-1%
COc1ccc(/C=N\Nc2cn[nH]c(=O)c2Cl)cc1OC	9%
O=C(CSc1nc2c(cnn2-c2ccc(F)cc2)c(=O)[nH]1)NC1CCCCC1	-7%
CCc1cc2c(=O)[nH]c(CCl)nc2s1	3%
Cc1c(Cc2ccc3c(c2)OCO3)sc(NC(=O)c2ccc(Br)s2)c1C#N	-1%
COc1ccc(C(=O)CSc2nc(N)c(NC(=O)c3ccco3)c(=O)[nH]2)cc1	-14%
Cc1nc2sc(C(c3ccc(F)c(F)c3)N3CCOCC3)c(O)n2n1 (stereo not drawn)	7%
Cn1c(=O)c2c(nc(N3CCC(Cc4ccccc4)CC3)n2CCSc2nc3ccccc3o2)n(C)c1=O	-1%
O=C(Nc1c(C(=O)Nc2ccc(F)c(Cl)c2)oc2ccccc12)c1ccco1	-2%
O=C(/C=C1\SC(=O)NC1=O)Nc1ccccc1C(=O)O	-5%
O=C(NNc1ncnc2c1cnn2-c1ccc(Cl)c(Cl)c1)c1ccccc1Cl	-4%
CC(C(=O)Nc1ncc([N+](=O)[O-])s1)N1C(=O)c2ccccc2S1(=O)=O (stereo not drawn)	-14%
Cn1c(=O)[nH]c(=O)c2c1nc(N1CCC(Cc3ccccc3)CC1)n2CCCc1ccccc1	16%
Nc1ncnc(Nc2ccc(Cl)c(Cl)c2)c1[N+](=O)[O-]	-9%
O=c1[nH]c(-c2cccnc2)nc2ccccc12	4%
Cc1ccc(N2C(=O)C3N=NN(CC(=O)Nc4cc(Cl)ccc4C)C3C2=O)cc1Cl (stereo not drawn)	-14%
Clc1cc(Cl)c2nc(N3CCCC3)sc2c1	19µg/mL*
COc1cccc2sc(Nc3nnc(-c4ccc(Cl)cc4)o3)nc12	14%
O=C(CCN1C(=O)/C(=C/c2ccccc2F)SC1=S)Nc1ccc2c(c1)OCO2	-4%
O=C(Nc1ccc(OC(F)(F)F)cc1)c1oc2ccccc2c1NC(=O)C1CCCO1 (stereo not drawn)	7%
Cn1c(SCC(=O)c2ccccc2)ncc(C(=O)Nc2ccc(F)cc2)c1=O	-2%
COc1ccc(C(=O)Nc2nnc(-c3ccc(C)cc3C)o2)cc1	24µg/mL*
Cc1cccc(NC(=O)Cn2ccn(-c3ccc(F)c(Cl)c3)c(=O)c2=O)c1	-12%
COc1ccc2cc(CCNC(=O)COc3ccc(Cl)cc3Cl)c(=O)[nH]c2c1	-6%
Cc1nnc(NC(=O)CSc2nnc(CNC(=O)C34CC5CC(CC(C5)C3)C4)n2-c2ccccc2)s1	-7%
CS(=O)(=O)c1cccc(-c2nnc(NC(=O)c3ccc(F)cc3)o2)c1	45%
Cc1ccc(CCC(=O)NNC(=O)CCc2ccc(C)o2)o1	-10%
CCOC(=O)c1cnc2ccc(C(=O)O)cc2c1N1CCN(CCO)CC1	-12%
CC(=O)N1CCc2c(sc(NC(=O)c3ccccc3Oc3ccccc3)c2-c2nc3ccccc3s2)C1	75%
O=C(c1ccc2c(=O)n(CCC3=CCCCC3)c(=S)[nH]c2c1)N1CCN(c2cccc(Cl)c2)CC1	1%
CNC(=O)c1ccsc1NC(=O)c1cc2ccccc2cc1OC	0%
Cc1cc(NC(=O)c2cccc(F)c2)nc2c1c(=O)oc1ccccc12	-6%
Cc1ccccc1-n1nc2c(c1NC(=O)/C=C\c1ccc3c(c1)OCO3)CSC2	-4%
CC1CCc2sc(NC(=O)c3cccc4ccccc34)c(C(N)=O)c2C1 (stereo not drawn)	8%
Next records
SMILES	Mtb growth
O=c1[nH]c2ccccc2nc1/C=C/c1ccc(Br)cc1	5%
O=C(Nc1nnc(-c2ccc(Br)cc2)s1)c1ccc(C(=O)c2ccccc2)cc1	6%
COc1ccc(SCC(=O)Nc2nnc(-c3ccc4c(c3)OCCO4)o2)cc1	81%
Cc1nc2sc(C(c3ccco3)N3CCC(C)CC3)c(O)n2n1 (stereo not drawn)	7%
CCOC(=O)C1CCN(C(c2ccccc2)c2sc3nc(C)nn3c2O)CC1 (stereo not drawn)	-8%
COc1cc(OC)cc(C(=O)Nc2nnc(-c3ccc(Cl)cc3)s2)c1	11%
Cc1ccccc1-c1nnc(NC(=O)c2cc(Br)ccc2Cl)s1	43%
CCN(CC)S(=O)(=O)c1ccc(C(=O)Nc2nnc(C34CC5CC(CC(C5)C3)C4)s2)cc1	2%
O=C(CN1C(=O)c2ccccc2C1=O)Nc1nc(-c2ccc3c(c2)CCCC3)cs1	1%
CN(C)S(=O)(=O)c1ccc(C(=O)Nc2cccc(-c3nc4ccccc4s3)c2)cc1	-4%
Cc1ccc(NC(=O)CSc2ccc3nnc(-c4ccccc4)n3n2)cc1	6%
Cc1cccc(NC(=O)CSc2nnc(-c3cccnc3)o2)c1	-12%
COc1ccc(-n2c(-c3ccccc3)cn3c4c(=O)n(CC(C)=O)c(=O)n(C)c4nc23)cc1	7%
C=CCOC(=O)C1=C(C)NC(=O)NC1c1ccccc1 (stereo not drawn)	-4%
Cc1c(C)n2c(SCC(=O)Nc3cccc(F)c3)nnc2[nH]c1=O	-3%
C=CCn1c(=NC(=O)c2ccc(Cl)s2)sc2cc(NC(C)=O)ccc21	7%

High-throughput results: PubChem, Southern Research Institute

Only part of the results is shown, so the mix of outcomes need not match the whole.
